Compound activity from PubChem BioAssay.
ClpP mod: qHTS Assay for Activators of ClpP. 340,000 tested, 1.9% active. AID 651965, 2013. Potency, µM (titrated, usually from 57.5 µM), without a hit: at the top dose activity change, negative = active. purified B. subtilis ClpP, FRET peptide cleavage, 20 min. ATP-dependent Clp protease proteolytic subunit (Bacillus subtilis (strain 168)), P80244; active = well fitted falling curve with a large enough effect; inconclusive = small, poorly fitted or top-dose-only effect; inactive = no such curve, though single readings can be large or run the other way; further: potency means the concentration at half of the fitted maximal effect; the source files actives as falling curves though it sought activators and does not explain the sign; nearly all actives have a fitted effect of over 65% in size; many hits overshoot -100%
Target sequence (P80244 whole entry, looked up): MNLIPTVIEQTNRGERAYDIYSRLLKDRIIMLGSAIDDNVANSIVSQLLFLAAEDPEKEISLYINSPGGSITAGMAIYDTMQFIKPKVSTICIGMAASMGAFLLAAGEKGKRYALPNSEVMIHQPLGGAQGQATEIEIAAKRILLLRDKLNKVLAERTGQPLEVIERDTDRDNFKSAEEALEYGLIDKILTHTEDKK
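Purified B. subtilis ClpP, 10 microg/mL final in Tris/HCl pH8 with KCl, BSA, glycerol and Tween-20, cleaved an Abz/nitrotyrosine-quenched decapeptide. Fluorescence (ex 320, em 430) was read at 0 and 20 min at room temperature. Delta was normalized to 5.8 microM ADEP and DMSO/no-enzyme controls.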
TRPML1 blocker: qHTS for Inhibitors of the Human Mucolipin Transient Receptor Potential 1 (TRPML1). 390,000 tested, 0.02% active. activity change, negative = inhibition, % (no concentration beside the values). TRPML1-inducible cells, Ca2+ dye fluorescence, FDSS; active compounds read low; inhibition of EC80 agonist-evoked calcium signal. Mucolipin-1 (Homo sapiens), Q9GZU1; in the data active means activity change below about -50%; inconclusive means about -30% to -50%; inactive means above about -30%;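 further: stimulus is agonist 54-4 at its EC80 concentration; on the % scale 0 is the no-effect control and ±100 the full control effect; compound concentration not given in the record; the text of the record puts the active cut at -80%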
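Calcium fluorescence in TRPML1-DL cells induced overnight with Tet: a 110 s read after compound pin addition, then a 110 s antagonist read after challenge with 54-4 at 4 uM final (EC80).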
Menin MLL FP FL: qHTS Assay for Inhibitors Targeting the Menin-MLL Interaction in MLL Related Leukemias: Competition With Fluorescein Labeled MLL-derived Peptide | 290,000 tested, under 10 active | FP activity change, % at 61.4 µM | AID 1766, 2009 | Fluorescence polarization, fluorescein-MLL peptide displacement from menin; inconclusive = falling polarisation curve, or a change in total fluorescence; inactive = total fluorescence flat and polarisation flat or rising; no compound was filed as active; the % refers to the polarisation; negative = inhibition;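 further: % of control where 0% means no effect; inhibitors lower the polarisation; unlabelled MLL peptide was the positive control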
Sfp inh: qHTS Assay for Inhibitors of Bacillus subtilis Sfp phosphopantetheinyl transferase (PPTase); 310,000 tested, 3.5% active; AID 1490, 2009; 4'-phosphopantetheinyl transferase ffp (Bacillus subtilis), Q9F4F7; Biochemical Sfp PPTase activity, qHTS; Potency, µM, for the others: max response, negative = inhibition, hits mostly inhibitors; active means well fitted inhibition curve with a large enough effect; inconclusive means small, poorly fitted or top-dose-only effect, or another doubt; inactive means no such curve, though single readings can be large or run the other way;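 further: the enzyme is Sfp with the accession as filed and its product quenches rhodamine fluorescence; potency means the concentration at half of the fitted maximal effect; 0% = enzyme reaction without inhibitor and -100% = no enzyme wells; top concentration of the series not given in the record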
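Step 1, compound plus 15 nM Sfp-PPTase, 15 min, room temperature. Step 2, add rhodamine-CoA (5 uM) and BHQ-2-YbbR (12.5 uM). Step 3, read 525/598 nm fluorescence at 0 and 30 min.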
gsp agonist: qHTS for Agonist of gsp, the Etiologic Mutation Responsible for Fibrous Dysplasia/McCune-Albright Syndrome: qHTS | gsp mutant cells, cAMP HTRF, 30 min; control for the full effect not named in the record | 340,000 tested, 0.13% active | Potency, µM (doses to about 76.9 µM), without a hit: top-dose activation (cAMP increase), most hits filed as activators; active = well fitted activation curve with a large enough effect; inconclusive = small, poorly fitted or top-dose-only effect, or another doubt; inactive = no such curve, though single readings can be large or run the other way; cell line not stated here;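 further: phosphodiesterase inhibitor Ro 20-1724 added with compounds to block cAMP breakdown; potency means the concentration at half of the fitted maximal effect; nearly all actives have a fitted effect of over 60% in size; about a fifth of the inactives were tested at one dose only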
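Cells stably selected in G418 were plated at 2000/well, grown 16-24 hr, then given compounds in DMSO with the PDE inhibitor […] (300 uM solution added) for 30 min at 37C; cAMP was read by HTRF.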
gsp antag: qHTS for Antagonists of gsp, the Etiologic Mutation Responsible for Fibrous Dysplasia/McCune-Albright Syndrome: qHTS; 340,000 tested, 0.4% active; Potency, µM (series often up to 76.9 µM), for the others: at the top dose activity change, negative = inhibition, most hits filed as inhibitors; gsp-mutant cells, cAMP HTRF, 30 min; control for the full effect not named in the record; active = falling curve of any shape with a large fitted effect; inconclusive = falling curve, mostly with a smaller effect; inactive = flat or rising curve; cell line not stated here;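 further: intracellular cAMP measured with PDE inhibitor Ro 20-1724 present during compound exposure; potency means the concentration at half of the fitted maximal effect; on the % scale 0 is the no-effect control and ±100 the full control effect; nearly all actives have a fitted effect of over 65% in size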
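HTRF cAMP measurement after 30 min RT detection following 30 min, 37C compound treatment alongside […] (added as 300 uM solution) in G418-selected cells seeded at 2000/well and grown 16–24 h.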
TRPV1 PAM: HTS Assay for Compounds that Act as Potentiators of the Vanilloid Receptor 1; 320,000 tested, 0.02% active; potentiation, % at 8.33 µM; TRPV1-expressing cells, Fluo-8 calcium influx, capsaicin EC20 potentiation; host cell line not named in the record; control for the full effect not named in the record; active means potentiation above 80%; inconclusive means 30% to 80%; inactive means below 30%; further: 0% is about no effect
Target sequence (Q8NER1 whole entry, looked up): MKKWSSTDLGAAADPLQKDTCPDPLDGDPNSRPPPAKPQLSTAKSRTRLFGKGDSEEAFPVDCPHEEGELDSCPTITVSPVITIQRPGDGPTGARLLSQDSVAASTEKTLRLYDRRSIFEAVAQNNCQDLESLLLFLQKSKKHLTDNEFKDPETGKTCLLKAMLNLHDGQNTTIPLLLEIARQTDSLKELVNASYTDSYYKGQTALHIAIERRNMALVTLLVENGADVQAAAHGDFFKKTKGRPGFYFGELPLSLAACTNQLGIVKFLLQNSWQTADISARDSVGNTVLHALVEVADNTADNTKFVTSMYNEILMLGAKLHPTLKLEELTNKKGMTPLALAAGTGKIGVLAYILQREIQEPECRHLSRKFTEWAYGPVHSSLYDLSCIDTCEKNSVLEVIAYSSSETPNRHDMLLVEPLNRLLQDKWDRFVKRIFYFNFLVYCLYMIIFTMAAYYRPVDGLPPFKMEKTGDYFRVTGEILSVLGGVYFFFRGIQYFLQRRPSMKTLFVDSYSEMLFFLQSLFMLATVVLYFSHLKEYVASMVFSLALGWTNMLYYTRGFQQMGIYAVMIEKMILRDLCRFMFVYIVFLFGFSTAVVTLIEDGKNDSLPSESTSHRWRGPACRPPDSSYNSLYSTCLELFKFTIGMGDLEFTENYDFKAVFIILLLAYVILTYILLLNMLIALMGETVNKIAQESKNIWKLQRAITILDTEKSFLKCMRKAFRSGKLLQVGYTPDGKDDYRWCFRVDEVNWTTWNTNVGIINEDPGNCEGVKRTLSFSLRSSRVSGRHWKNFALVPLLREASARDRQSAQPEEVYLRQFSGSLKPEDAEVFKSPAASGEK
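TRPV1-expressing cells were cultured overnight at 35.5C and loaded with Fluo-8 calcium dye for 40 to 90 min at room temperature. After a 10 s baseline, compound was added and calcium influx was read kinetically for 3 min (ex 480/em 520 nm).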
An asterisk follows results filed as active; u = inconclusive; x = not tested or not shown; & = joins results of further samples; [ ] = another dose, or the depositor's remark. Hits appear at their usual frequency; any-hit rate near 4.9%.

SMILES	ClpP mod	TRPML1 blocker	Menin MLL FP FL	Sfp inh	gsp agonist	gsp antag	TRPV1 PAM
Cc1ccc2c(Cl)c(C(=O)NC3CC3)sc2c1	-1.9%	-2	x	11%	u	1%	-19
CCCc1nnc(NC(=O)CCC(=O)NCc2ccccc2OC)s1	1.0%	-3	2.0	2%	18%	10%	-1
CC(C)CN1C2CCCC1CC(NC(=S)NCc1ccco1)C2 (configuration not stated)	x	-5	0.9	4%	26%	10%	-4
CC(C)CCC(CCNCc1ccccn1)c1ccc2c(c1)OCO2 (configuration not stated)	1.9%	-16	4.7	-21%	11%	15%	-13
Cc1c(Cl)cccc1NC(=O)c1cc(S(=O)(=O)N2CCOCC2)cn1C	-4.8%	-10	-1.6	21%	u	6%	-5
C=CCn1c(P(C)(=O)O)nc2ccccc21	-2.3%&1.7%	10&9	-2.7&-0.9	-1%&8%	u	7%&13%	5&3
CC1CCCCC1NC(=O)c1ccc(S(=O)(=O)NCc2ccco2)cc1 (configuration not stated)	0.6%	-5	-1.5	-9%	-23%	9%	4
O=S(=O)(c1ccccc1)N1CCC(N2CCN(c3ccccc3)CC2)CC1	x	x	-1.2	16%	x	x	13
O=C1NCC(Nc2ccc(Cl)cc2)C(=O)N1 (configuration not stated)	x	-3	x	x	-11%	5%	x
COc1ccc(C(=O)CSc2nnc(-c3ccoc3C)n2CC2CCCO2)cc1 (configuration not stated)	1.1%	-3	6.4	6%	-11%	-8%	1
Nc1nnnn1CC(=O)OCc1cccc(Br)c1	-2.3%	-12	1.1	5%	6%	18%	-8
[N-]=[N+]=NC[C@H](Cc1ccccc1)N1CC[C@@H](O)CCC1=O	0.7%&1.0%	-4	4.6	27%	x	14%	-13
O=C(CCC1CCCN(C(=O)c2ccc3c(c2)OCO3)C1)NCc1ccc(F)c(F)c1 (configuration not stated)	-2.3%	-4	-5.8	-2%	-77%[inhibitor]	-7%	-11
CC(C)N=C1SC(CC(=O)Nc2ccccc2)C(=O)N1C(C)C (configuration not stated)	-0.2%	-19	1.4	12%	0%	-2%	-4
Cc1cccc(-c2nc(CS(=O)CC(=O)NCCc3ccccc3)c(C)o2)c1 (configuration not stated)	-7.6%	14	-2.7	9%	22%	5%	5
Cc1cccc(OCC(=O)N(Cc2cccs2)C2CCS(=O)(=O)C2)c1 (configuration not stated)	1.1%	5	0.7	12%	18%	-2%	9
O=C1C(=O)N(CC2CCCO2)C(c2ccco2)/C1=C(/O)c1ccc(F)cc1 (configuration not stated)	x	-3	1.8	8%	-20%[15.4 µM]	15%	4
COC(=O)CCc1c(COC(C)=O)[nH]c(C(=O)OCc2ccccc2)c1C	1.4%	35	5.0	11%	0%	4%	3
CC[n+]1c(/C=C/c2ccc(OC(C)=O)c(OC)c2)ccc2ccccc21	-7.0%	-18	11	-15%	-1%	-11%	4
COc1cc(C(=O)NCCc2ccc3c(c2)OCO3)cc(OC)c1OC	x	5	x	x	13%	3%	x

Brought forward from above: 2 compounds, followed by the next part.
SMILES	ClpP mod	TRPML1 blocker	Menin MLL FP FL	Sfp inh	gsp agonist	gsp antag	TRPV1 PAM
CC[n+]1c(/C=C/c2ccc(OC(C)=O)c(OC)c2)ccc2ccccc21	-7.0%	-18	11	-15%	-1%	-11%	4
COc1cc(C(=O)NCCc2ccc3c(c2)OCO3)cc(OC)c1OC	x	5	x	x	13%	3%	x
Cc1c(NC(=O)CCC2CCCCC2)cc(C(=O)N2CCOCC2)cc1[N+](=O)[O-]	x	-7	-1.0	-6%	-20%[15.4 µM]	4%	-1
COC(=O)[C@H](CC(C)C)NC(=O)Cn1cnc2c(NCc3ccccc3)ncnc21	0.1%	8	x	x	x	-5%	x
COc1ccccc1NC(=O)CSc1ccc(-c2ccc(-n3cccn3)cc2)nn1	1.2%	-9	x	x	-10%[15.4 µM]	u	2
Cc1ccc2nc(NCCO)nc(-c3ccccc3)c2c1	u	2	1.8	6%	0%	0%	-11
COCCCN1C(=O)C(O)=C(C(=O)c2ccco2)C1c1cccc(Br)c1 (configuration not stated)	-2.0%	8	0.7	10%	25%	8%	-6
CCn1cc(CNC(=O)c2cccc([N+](=O)[O-])c2)c(C)n1	-1.0%	-16	4.1	5%	17%	1%	-2
COc1ccc(NC(=O)c2cc(C)nc3ccccc23)cc1S(=O)(=O)Nc1ccccc1Cl	-1.8%	58	4.4	2%	2%	6%	10
COc1ccc(/C=C/C2=Nc3ccccc3NC(C)(C)C2)cc1OC	3.0%	7	1.4	6%	-4%	-2%	-1
CCCC(=O)Nc1ccc(S(=O)(=O)N2CCOCC2)cc1	0.8%	-10	2.9	13%	-30%	2%	1
COC(=O)/C=C1/SC(=NC(=O)c2ccccc2)NC1=O	-0.2%	-15	0.4	28µM*	-18%[15.4 µM]	1%	-6
CCn1c(O)c(N=N)c2ccccc21	x	-17	-0.5	13%	2%[15.4 µM]	x	-7
CCCCCN(C(=O)CCC(=O)OCC(=O)N(CC)C1CCCCC1)c1c(N)n(CCCC)c(=O)[nH]c1=O	-3.6%	6	x	x	0%	-2%	-12
Cc1ccc(N2C(=O)C3N=NN(CC(=O)N4N=C(c5ccccc5)CC4c4ccccc4)C3C2=O)cc1 (configuration not stated)	x	10	23	-8%	10%[15.4 µM]	-16%	84*
Cc1c(/C=N\NC(=O)c2ccc(F)cc2)cnn1C	-3.0%	-5	-1.8	9%	2%	15%	-3
COc1ccc(C/C(N)=N/OC(=O)Cc2ccccc2)cc1	0.9%	-12	3.9	4%	-7%	4%	-1
CCc1nn(CC(=O)NCCCN2CCCC2=O)c(=O)c2cc3sccc3n12	-17%	-4	1.1	4%	29%	11%	0
CCOC(=O)Cc1ccc(NC(=O)c2ccc(C(C)(C)C)cc2)cc1	-1.1%	8	-2.2	24%	-19%	-8%	-1
O=S(Cc1ccc(Br)cc1)Cc1nnc(SCc2ccc(Br)cc2)n1-c1ccccc1 (configuration not stated)	-2.3%	-14	8.7	-6%	-9%	-7%	1
CC(=O)c1cccc(NC(=O)N2CCCC2C(=O)Nc2cccc(C)c2C)c1 (configuration not stated)	0.3%	35	0.6	6%	18%	3%	9
Cc1ccc(C(=O)CSc2nnc(-c3ccc4[nH]c(C)c(C)c4c3)o2)cc1C	-2.4%	-3	-2.2	6%	-6%	2%	2
CCOc1ccc(C(=O)NCCc2cnc[nH]2)cc1OCC	x	34	6.3	11%	8%	9%	u
O=C(Cc1cccs1)N(Cc1cccs1)C1(C(=O)NC2CCCC2)CCCCC1	-1.4%	38	2.3	6%	5%	-22%	-25
CC(=O)Nc1ccc(S(=O)(=O)N(C)CC(=O)OCC(=O)c2cc(C)n(-c3ccc4c(c3)OCO4)c2C)cc1	1.7%	-5	3.1	4%	-53%[inhibitor]	-18%	-16
Cc1csc(=O)n1CC(=O)Nc1nc2ccccc2s1	-1.9%	13	x	x	7%	-1%	-7
COCCNC(=O)C(c1ccc(F)cc1)N(Cc1cccs1)C(=O)CCC(=O)Nc1ccccn1 (configuration not stated)	x	20	-0.1	10%	0%[15.4 µM]	5%	24
Cc1ccc(NC(=O)CSc2n[nH]c(-c3cccnc3)n2)c(Br)c1	x	1	-0.9	2%	-4%[15.4 µM]	x	u
COc1ccccc1NC(=O)NCCN1CCCCC1	-3.4%	x	-2.9	17%	-21%	9%	13
NS(=O)(=O)c1ccc(N2C(=O)C(=O)/C(=C(/O)c3ccccc3)C2c2ccc(Cl)cc2)cc1 (configuration not stated)	0.2%	-6	2.4	10%	5%	9%	14
CCc1nnc(NC(=O)CCS(=O)(=O)c2ccccc2)s1	x	-9	-0.8	-1%	-41%[inhibitor]	u	9
CSc1nc(C)c(CCOCc2ccc(F)cc2)c(=O)[nH]1	x	-10	-7.0	-5%	1%[15.4 µM]	-4%	22
COC(=O)Nc1ncc(CN2C(=O)c3ccccc3C2=O)s1	-1.1%	4	-5.5	-10%	u	11%	6
COc1ccc(N(C(=O)c2ccc(Cl)cc2)C2=CC3CCC(C2)N3C)cc1 (configuration not stated)	0.8%	0	2.6	13%	-2%	7%	7
O=C(NCc1ccccn1)C1CC(c2ccc(Cl)c(Cl)c2)=NO1 (configuration not stated)	-2.7%	-14	2.4	1%	13%	u	-10
O=C1NC(=Nc2ccc3ccccc3c2)S/C1=C/c1ccco1	-1.5%	-8	u	71µM*	7%	-16%	3
Cn1c(N)c(C(=O)COC(=O)/C=C/c2ccc(OC(F)F)cc2)c(=O)n(C)c1=O	x	-1	-3.5	11%	8%[15.4 µM]	-37%	1
COc1ccc2c(c1)CCc1sc(NC(=O)c3ccc(C)cc3)nc1-2	35µM*	34	13	5%	22%	-11%	9
CCOC(=O)c1cnn(C)c1NC(=O)c1ccc(Cl)cc1Cl	-2.3%	12	-14	3%	12%[15.4 µM]	1%	12
COC1=C(OC)c2ccccc2C(C(=O)O)N/C1=C(/C)Nc1ccncc1 (configuration not stated)	-2.0%	3	-0.2	-14%	4%	-3%	8
CCN1C(=NCc2ccccc2)N[C@@H](c2ccccc2)[C@H](C(=O)OC)[C@H]1C	-0.3%	40	-3.5&-0.4	13%&3%	25%	8%	0&-19
CCCC(=O)N1CCN(c2nc3ccc(CC)cc3s2)CC1	0.1%	15	x	8%	1%	-3%	-16
Cc1sc2nc(CSC(C)C(=O)N3CCOCC3)[nH]c(=O)c2c1C (configuration not stated)	-2.8%	12	12	10%	u	-2%	4
COc1ccc(CCC(=O)c2ccc(OC)cc2)cc1	1.6%	-1	x	x	-7%	-5%	x
